# GIRK2 activ – GIRK2 channel activation. 63,000 compounds, 0.05% hits. calls only for hits at 25 µM. HEK293-GIRK2 thallium flux, Thallos fluorescence;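 active = among the strongest 0.2% of first-round signals and kept after retests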;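 note: first round at about 10 µM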
# Target sequence (P48051 whole entry, looked up): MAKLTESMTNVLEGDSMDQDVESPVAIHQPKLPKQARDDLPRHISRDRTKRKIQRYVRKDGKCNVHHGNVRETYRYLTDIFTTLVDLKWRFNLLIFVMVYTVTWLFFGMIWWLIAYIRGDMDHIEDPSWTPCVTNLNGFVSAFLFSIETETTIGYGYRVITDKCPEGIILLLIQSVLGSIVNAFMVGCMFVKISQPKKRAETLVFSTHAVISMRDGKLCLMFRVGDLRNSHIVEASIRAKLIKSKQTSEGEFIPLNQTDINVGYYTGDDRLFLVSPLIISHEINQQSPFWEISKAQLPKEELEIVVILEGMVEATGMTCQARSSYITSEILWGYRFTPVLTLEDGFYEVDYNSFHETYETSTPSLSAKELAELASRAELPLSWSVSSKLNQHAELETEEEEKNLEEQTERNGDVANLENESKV
# Calls only; i = inactive. A portion of the library (hit frequency here may not be typical).
SMILES,GIRK2 activ
COc1ccc(OCC(O)Cn2c(SCC(=O)O)nc3c2c(=O)n(C)c(=O)n3C)cc1 (centres undefined),i
COc1cc([N+](=O)[O-])ccc1NC(=O)c1cc2cccnc2n(C)c1=O,i
NC(=O)c1nnn(-c2ccc(NC(=O)C34CC5CC(CC(C5)C3)C4)cc2)n1,i
COc1cccc(C(=O)Nc2ccc3c(c2)N(C(=O)C(C)C)CCC3)c1,i
C=CCOCC(O)Cn1c(NCCN(CC)CC)nc2c1c(=O)[nH]c(=O)n2C (centres undefined),i
COc1ccc(-c2cc3ccc4c(c3oc2=O)CN(Cc2ccncc2)CO4)cc1,i
CCCS(=O)(=O)N1CCN=C1SCc1ccc(F)cc1,i
COc1ccccc1N1CCN(CCNS(=O)(=O)c2cccc(Cl)c2)CC1,i
O=C(CC1=C/C(=C\c2ccc(C(=O)O)cc2)c2ccc(F)cc21)NCc1ccccc1,i
Cn1nc(-c2ccccc2)cc1C(=O)N1CCc2nc(NC(=O)c3ccoc3)sc2C1,i
CC(Cc1ccco1)NC(=O)C1CC1 (centres undefined),i
CCn1c(SCC(=O)Nc2ccccc2C)nc2c(-c3ccccc3)c[nH]c2c1=O,i
NC(=O)c1ccccc1OCC#CCNC(=O)c1ccc(OC(F)(F)F)cc1,i
O=C(Cc1cccs1)NCC(O)c1ccc2c(c1)CCO2 (centres undefined),i
Cc1c(CCC(=O)N2CCN(c3ccccc3)CC2)c(=O)n2c([nH]c3ccccc32)c1C#N,i
O=C(Nc1ccc(NC(=O)c2sc3ncccc3c2-n2cccc2)cc1)c1ccco1,i
Cc1c(C(O)=C2C(=O)C(=O)N(CCN(C)C)C2c2ccc(F)cc2)cnn1-c1ccccc1 (centres undefined),i
CC1CCCN(S(=O)(=O)c2ccc(Cl)cc2)C1 (centres undefined),i
CC(C)(C)c1ccc(-c2noc(Cn3c(=O)n(Cc4ccco4)c(=O)c4ccccc43)n2)cc1,i
COc1nn(C)cc1C(=O)NCC1CCN(C(C)C)CC1,i
Cc1csc(SCC2CCN(C(=O)c3cc(C)on3)CC2)n1,i
Cc1cc(CN2CCC(CNC(=O)c3ccc(OC(C)C)cc3)CC2)c(C)o1,i
CCOC(=O)C1CCCN(c2nc3c(S(=O)(=O)c4ccc(C)c(C)c4)nnn3c3ccccc23)C1 (centres undefined),i
CCCCCCCCCNC(=O)Cc1c(C)n(C(=O)c2ccc(Cl)cc2)c2ccc(OC)cc12,i
O=c1cc(-c2ccc3c(c2)OCCO3)oc2cc(Cl)ccc12,i

# Continued:
SMILES,GIRK2 activ
C/C(Cl)=C\Cn1c(N2CCN(c3ccccc3)CC2)nc2c1c(=O)n(C)c(=O)n2C,i
O=C(NC1CCN(Cc2noc(-c3ccccc3)n2)C1)c1cc(Cl)ccc1F (centres undefined),i
CCOc1ccc(CC(=O)NCCc2ccoc2)cc1,i
CCC(O)/C=C/C=O (centres undefined),i
O=C(CCc1nnc2c(N3CCCCC3)nc3ccccc3n12)NCc1ccc2c(c1)OCO2,i
CC(O)(CNC(=O)c1ccc(Cl)s1)c1cccs1 (centres undefined),i
Cc1ccc(S(=O)(=O)NCC#CCN2CCCC2)cc1C,i
COc1cccc(C(=O)NCCCn2ncccc2=O)c1OC,i
O=C(NCCc1c[nH]c2ccccc12)c1cc(=O)c(OCc2ccccc2)co1,i
O=c1[nH]c2nc(NCC3CCCO3)ncc2c(=O)n1Cc1ccccc1F (centres undefined),i
O=C(N1CCC(Oc2nc3ccccc3s2)CC1)C1(c2ccccc2)CCOCC1,i
Cc1cc(C(O)CCNC(=O)c2cccc(N(C)C)c2)c(C)o1 (centres undefined),i
COc1cc(COCC2CCN(C(=O)Nc3ccccc3C(F)(F)F)CC2)cc(OC)c1,i
Cc1ccc(N(C(=O)c2ccccc2C)C(=O)N2CCCCC2)cc1,i
COc1ccc(C(=O)NC2CCCC(OC(=O)Nc3ccc(F)cc3)C2)c(OC)c1 (centres undefined),i
COc1ccc(NC(=O)Nc2cccc(-c3csc4nc(C)cc(=O)n34)c2)cc1,i
CCOc1ccc(NC(=O)c2cn(Cc3ccc(NC(=O)CCc4ccc(OC)cc4)cc3)cn2)cc1,i
Cn1nnnc1SCC(=O)N1CCN(Cc2nnnn2-c2ccc(Cl)cc2)CC1,i
COc1ccc(CNC(=O)c2sccc2N(C)S(=O)(=O)c2ccc(OC)cc2)cc1,i
COc1ccccc1NC(=O)c1cc(-c2cccc(C(F)(F)F)c2)oc1C,i
COc1ccc(NC(=O)c2cc3c(=O)n4cccc(C)c4nc3n2Cc2ccccc2)cc1,i
Cc1ncc2c(SCC(=O)N3CCN(c4ccccc4F)CC3)ncnc2n1,i
CC1CCN(c2cc(SCC(=O)Nc3ccc(Cl)cc3C(F)(F)F)ncn2)CC1,i
CC1=C(C(=O)Nc2ccccc2Cl)C(c2ccc(Cl)c([N+](=O)[O-])c2)NC(=O)N1 (centres undefined),i
CCn1c(=O)c2c(nc3n2CC(C(C)(C)C)=NN3C)n(C)c1=O,i

# More entries follow.
SMILES,GIRK2 activ
COc1cccc(C(=O)N2CCN(c3oc(-c4cccs4)nc3C#N)CC2)c1,i
O=C(c1ccccc1F)N1CCN(Cc2nc(-c3ccco3)cs2)CC1,i
C=C1N(c2cccc(C(F)(F)F)c2)C(=O)OC1(C)C,i
O=C(Cc1ccc(F)cc1)Nc1nc(CN2CCc3ccccc3C2)cs1,i
N#Cc1ccccc1NC(=O)CSc1nccn1-c1cccc(C(=O)Nc2ccccc2)c1,i
COC(=O)c1sccc1S(=O)(=O)N(CC(=O)NCc1ccc(F)cc1)c1ccc(C)c(C)c1,i
COc1ccccc1-n1nnc(C(=O)N2CCc3ccccc32)c1-c1ccccn1,i
COc1ccc(-n2nnc3c(N4CCN(C(=O)/C=C\c5ccc6c(c5)OCO6)CC4)ncnc32)cc1,i
O=C(NCC1(O)CCCC1)Oc1ccccc1,i
Cc1c(-c2ccc(Br)cc2)c(=O)oc2cc(O)ccc12,i
COC(=O)N1CCc2ccc(F)cc2C1C(=O)N1CCN(Cc2ccccn2)CC1 (centres undefined),i
CCOc1ccc2nc(N(Cc3ccncc3)C(=O)Cc3ccc(SC)cc3)sc2c1,i
N#Cc1cnc(NC(=O)CCn2ccc(=O)[nH]c2=O)s1,i
CCCCn1c(=O)c2sccc2n2c(CCC(=O)N3CCN(c4ccccc4)CC3)nnc12,i
O=C(Nc1ccc2c(c1)OCO2)c1ccc(Cl)c(S(=O)(=O)N2CCCCCC2)c1,i
CCOc1ccc(-c2noc(Cn3c(=O)n(Cc4ccco4)c(=O)c4ccccc43)n2)cc1OC,i
CCOC(=O)Cn1c(=O)c2c(nc3n2CCCN3c2cccc(OC)c2)n(C)c1=O,i
O=c1cc(CN2CCN(C/C=C/c3ccccc3)CC2)c2cc(O)ccc2o1,i
COc1cc(C(=O)NCCC(O)c2cccc3ccccc23)cc(OC)c1OC (centres undefined),i
COc1ccc(-n2ncc(C(=O)N3CCN(Cc4ccc5c(c4)OCO5)CC3)c2-n2cccc2)cc1,i
COc1cccc(C(=O)Oc2cc(C)c3c(c2)O/C(=C\c2cccnc2)C3=O)c1,i
C=CCOCC(O)Cn1c(N2CCCC2)nc2c1c(=O)[nH]c(=O)n2C (centres undefined),i
C=CCN1CC(c2nc3ccccc3n2Cc2cccc(Cl)c2)CC1=O (centres undefined),i
COc1ccccc1CCNC(=O)C(=O)Nc1cccc(N2CCCS2(=O)=O)c1,i
Cn1cnnc1SCc1cc(=O)c(OCC(=O)Nc2cccc(Cl)c2)co1,i

# Entries from the list above with a Cl atom (13):
SMILES,GIRK2 activ
COc1ccccc1N1CCN(CCNS(=O)(=O)c2cccc(Cl)c2)CC1,i
CC1CCCN(S(=O)(=O)c2ccc(Cl)cc2)C1 (centres undefined),i
CCCCCCCCCNC(=O)Cc1c(C)n(C(=O)c2ccc(Cl)cc2)c2ccc(OC)cc12,i
O=c1cc(-c2ccc3c(c2)OCCO3)oc2cc(Cl)ccc12,i
C/C(Cl)=C\Cn1c(N2CCN(c3ccccc3)CC2)nc2c1c(=O)n(C)c(=O)n2C,i
O=C(NC1CCN(Cc2noc(-c3ccccc3)n2)C1)c1cc(Cl)ccc1F (centres undefined),i
CC(O)(CNC(=O)c1ccc(Cl)s1)c1cccs1 (centres undefined),i
Cn1nnnc1SCC(=O)N1CCN(Cc2nnnn2-c2ccc(Cl)cc2)CC1,i
CC1CCN(c2cc(SCC(=O)Nc3ccc(Cl)cc3C(F)(F)F)ncn2)CC1,i
CC1=C(C(=O)Nc2ccccc2Cl)C(c2ccc(Cl)c([N+](=O)[O-])c2)NC(=O)N1 (centres undefined),i
O=C(Nc1ccc2c(c1)OCO2)c1ccc(Cl)c(S(=O)(=O)N2CCCCCC2)c1,i
C=CCN1CC(c2nc3ccccc3n2Cc2cccc(Cl)c2)CC1=O (centres undefined),i
Cn1cnnc1SCc1cc(=O)c(OCC(=O)Nc2cccc(Cl)c2)co1,i

# Continuation:
SMILES,GIRK2 activ
COc1cccc2cc(C(=O)N(CCN(C)C)c3nc4ccc(OC(F)(F)F)cc4s3)oc12,i
CC(O)(CNC(=O)c1ccc(C(F)(F)F)cc1)c1cccs1 (centres undefined),i
COc1ccccc1C(O)Cn1cc(C(=O)NCCCn2cccn2)nn1 (centres undefined),i
CC(C)(C)NC(=O)N1CCC(Cn2ccnc2)CC1,i
CCOc1ccc(NC(=O)CN2CC(c3nc(Cc4ccccc4)no3)C2)cc1,i
Cc1cc(C)cc(NC(=O)c2cn(-c3cc(N(C)C)ncn3)cn2)c1,i
CCC(C)(C)N=C(NC#N)Nc1cccnc1,i
COc1cccc2c(Nc3ccc(NC(C)=O)cc3)cc(C(=O)N3CCSCC3)nc12,i
O=c1c(-c2ccc([N+](=O)[O-])cc2)coc2cc(Br)ccc12,i
COc1ccc(CC(=O)Nc2cc(C)nn2-c2nc3c(cnn3-c3ccc(C)cc3)c(=O)[nH]2)cc1OC,i
O=C(Cn1nc2c(c1NC(=O)Cc1cccs1)CSC2)NCc1ccc(F)cc1,i
Cc1ccccc1CN(c1ccc(C(C)C)cc1)S(=O)(=O)c1cccn2c(C)nnc12,i
COc1ccc(/C=C/C(=O)Nc2c(O)cccc2C(=O)O)cc1OC,i
O=C(/C=C/c1ccccc1)Nc1ccc(-n2nnc(C(=O)N3CCCC3)n2)cc1,i
COc1ccc(NC(=O)CSc2nnnn2-c2ccc(C)c(C)c2)c(OC)c1,i
Cc1ccc(C(=O)Nc2sc3c(c2-c2nc4ccccc4s2)CCN(C(C)C)C3)cc1,i
COc1cc2nc(SCc3ccccc3F)n3nc(C)nc3c2cc1OC,i
Cc1cc(C)c(NC(=O)CSc2cc(NCc3ccccc3Cl)ncn2)c(C)c1,i
O=S(=O)(c1ccccc1)N1CCN(c2cnccn2)CC1,i
Cn1cccc1CN(Cc1cccs1)C(=O)c1cc2ccccc2o1,i
Cc1csc(CN2CCN(C(=O)c3ccc(S(=O)(=O)N4CCOCC4)cc3)CC2)n1,i
COc1cccc2sc(NC(=O)NCc3cccs3)nc12,i
COCCNC(=O)c1c(N)n(/N=C\c2cccc(OC)c2)c2nc3ccccc3nc12,i
C=CCSc1nnc(-c2cccc(S(=O)(=O)N3CCOCC3)c2)o1,i
O=C(CN1CCN(Cc2nc(-c3ccco3)cs2)CC1)NCc1ccc2c(c1)OCO2,i

# (further entries)
SMILES,GIRK2 activ
O=C(Cn1nc(C(=O)N2CCOCC2)cc1C1CC1)Nc1ccc(Cl)cc1Cl,i
CCOC(=O)c1c(NCc2ccccc2C)c2ccc(Cl)cc2[nH]c1=O,i
O=C(Nc1ccccc1-c1ccc(=O)[nH]n1)c1ccc(F)cc1F,i
O=C(Cn1ccc2ccccc21)N1CC(c2nc(-c3cccs3)no2)C1,i
COc1cccc(CSc2nc(C)c(CC(=O)Nc3nccs3)c(=O)[nH]2)c1,i
O=C(Nc1ccc2c(c1)OCO2)N1CCN(Cc2nnnn2-c2ccc(Cl)cc2)CC1,i
CN(C)Cc1c(C(=O)NCCOc2ccc(C(=O)NO)cc2)oc2ccccc12,i
CCc1ccc2c(c1)cc(S(=O)(=O)c1ccccc1)c(=O)n2CC(=O)NCc1ccc(F)cc1,i
CCn1nc(C(=O)Nc2cccc3nsnc23)cc1C,i
COc1cccc(CNC(=O)C(=O)Nc2ccc(OC)c(OC)c2)c1,i
O=C(Nc1ccncc1)C1COCC(=O)N1Cc1ccccc1 (centres undefined),i
O=C(Cn1c(-c2cccnc2)nc2ccccc21)Nc1nccs1,i
CC(=O)Nc1ccc(NC(=O)C2CCN(c3cnc4ccccc4n3)CC2)cc1,i
Cc1ccnc(SCCn2c(N3CCOCC3)nc3c2c(=O)n(C)c(=O)n3C)n1,i
CS(=O)(=O)Oc1ccc2c(c1)O/C(=C\C=C\c1ccccc1)C2=O,i
COc1ccc(C(=O)N2CCC3(CC2)CC(=O)c2ccccc2O3)cc1,i
Cc1ccc(S(=O)(=O)N(C)c2cc(S(=O)(=O)N(C)c3ccc(Cl)cc3)c(C)cc2C)cc1,i
Cc1ccc(CNC(=O)C2CCN(c3c(C#N)cnc4ccccc34)CC2)cc1,i
O=c1[nH]c(N2CCc3ccccc3C2)nc2c(-c3ccccc3Cl)csc12,i
CC(=O)N1CCN(C(=O)C(NC(=O)c2ccc(Cl)cc2)S(=O)(=O)c2ccc(C)cc2)CC1 (centres undefined),i
CSCC(C)(O)CNC(=O)Nc1ccccc1 (centres undefined),i
COc1cccc(CC(=O)Nc2ccc(Cn3cnc(C(=O)Nc4cc(C)ccc4OC)c3)cc2)c1,i
COc1ccccc1OCC(O)CN1CCNCC1 (centres undefined),i
Cc1ccc(S(=O)(=O)N2CCC(Oc3nc4c(F)cccc4s3)CC2)s1,i
Cn1nnnc1SCC(=O)N1CC2(COC(C)(C)OC2)C1,i
COC(=O)c1ccc(S(=O)(=O)Nc2ccc(-n3nnn(C)c3=O)cc2)cc1,i
COc1ccc(CCC(=O)N2CCC(Oc3ccccn3)CC2)cc1,i
O=C(CSC1CCCC1)NCC1CCN(c2ccccn2)CC1,i
O=C(NCCCn1cccc1)c1cc2ccccc2o1,i
CCCC(=O)N1CCc2cc(S(=O)(=O)N3CCOCC3)ccc21,i

# 5 compounds drawn at random from the list so far:
SMILES,GIRK2 activ
Cc1ccnc(SCCn2c(N3CCOCC3)nc3c2c(=O)n(C)c(=O)n3C)n1,i
CS(=O)(=O)Oc1ccc2c(c1)O/C(=C\C=C\c1ccccc1)C2=O,i
O=C(Nc1ccncc1)C1COCC(=O)N1Cc1ccccc1 (centres undefined),i
CSCC(C)(O)CNC(=O)Nc1ccccc1 (centres undefined),i
O=C(Nc1ccc2c(c1)OCO2)N1CCN(Cc2nnnn2-c2ccc(Cl)cc2)CC1,i
